# Calb FLC = C. albicans growth modulation with fluconazole | C. albicans CaCi-2 (fluconazole-resistant clinical isolate) + fluconazole, Alamar Blue growth, 48 h | 300,000 tested, 0.57% active | growth inhibition, % (concentration not given with the values);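 active means most replicates above 75%; inconclusive means exactly half above 75%; inactive means most below 75%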;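 further: all wells also contain fluconazole at 8 µg/ml as a sub-toxic cotreatment; 0% = median of DMSO wells and 100% = median of geldanamycin control wells; wells of about 8 µL received 7.5 nL stock; the first replicate is given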
# Beta cell apopt = beta cell apoptosis inhibition; protection from apoptosis, % (concentration not given with the values); INS-1E cytokine-induced death, ATP luminescence, 48 h; percent of positive-control rescue, neutral wells zero; 300,000 tested, 0.8% active;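 active means all replicates at 75% or more, or half of them and the mean; inconclusive means half reach 75% but not the mean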;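 further: 0% = cytokine-treated negative control wells and 100% = positive control rescue; higher means more ATP so stronger rescue from cytokine killing; wells of about 40 µL received 100 nL stock; the first replicate is given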
# AF4-AF9 inh = blocks AF4 peptide binding to human AF9 | P42568 | AlphaScreen, biotin-AF4 peptide binding to FLAG-AF9 | inhibition, % at 10 µM | 350,000 tested, 0.47% active;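 active means every replicate reaching a set inhibition limit, whatever the replicate mean, cut at about 25% in these data; inconclusive means mean inhibition reaches that limit but some replicates miss it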;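 further: 0% = plate neutral control median and 100% = total signal loss; the record names both 10 and 1 µM as test concentration; the first replicate is given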
# RanGTP-Impb inh = inhibitors of RanGTP-importin-beta interaction, primary screen, biochemical, FRET, CFP-Ran, YFP-importin-beta, homogeneous; AID 2216; 300,000 tested, 1.1% active; inhibition, % (test concentration not listed); cell-free CFP-Ran/YFP-importin-beta FRET ratio;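 active means most replicates above 15%; inconclusive means exactly half above 15%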;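 further: 0% = DMSO wells and 100% = Ran loaded with GDP instead of GTP; wells of about 40 µL received 100 nL stock; the first replicate is given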
# T cruzi repl = T. cruzi replication inhibition; T. cruzi beta-gal in NIH3T3, luminescence, 90 h; inhibition, % (no concentration beside the values); 300,000 tested, 1.4% active;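 active means mean inhibition across valid replicates above about 55%, limit read from the data; inconclusive means mean below that limit but half or more replicates reach it; inactive means mean below it, under half of replicates reach it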;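 further: signal also drops with host cell toxicity which is not excluded here; 0% = plate median of DMSO wells and 100% = zero luminescence signal; higher percent means less beta-gal luminescence so fewer parasites; stock transfer was 50 nL into about 50 µL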
# LANA-H2A inh = blocks KSHV LANA binding to histone H2A/H2B; cell-free LANA-H2A/H2B peptide, fluorescence polarization; inhibition, % (concentration not given with the values); 320,000 tested, 0.6% active; AID 2629; in the data active means inhibition mostly above about 10%, no sharp cut-off; inactive means mostly below about 6.7%;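 further: stock transfer was 7.5 nL into about 10 µL; 0% = median of vehicle wells and 100% = median of positive control wells; one replicate is shown; the record names a cut of 25% in any replicate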
# Target sequence (Q9QR71 whole entry, looked up): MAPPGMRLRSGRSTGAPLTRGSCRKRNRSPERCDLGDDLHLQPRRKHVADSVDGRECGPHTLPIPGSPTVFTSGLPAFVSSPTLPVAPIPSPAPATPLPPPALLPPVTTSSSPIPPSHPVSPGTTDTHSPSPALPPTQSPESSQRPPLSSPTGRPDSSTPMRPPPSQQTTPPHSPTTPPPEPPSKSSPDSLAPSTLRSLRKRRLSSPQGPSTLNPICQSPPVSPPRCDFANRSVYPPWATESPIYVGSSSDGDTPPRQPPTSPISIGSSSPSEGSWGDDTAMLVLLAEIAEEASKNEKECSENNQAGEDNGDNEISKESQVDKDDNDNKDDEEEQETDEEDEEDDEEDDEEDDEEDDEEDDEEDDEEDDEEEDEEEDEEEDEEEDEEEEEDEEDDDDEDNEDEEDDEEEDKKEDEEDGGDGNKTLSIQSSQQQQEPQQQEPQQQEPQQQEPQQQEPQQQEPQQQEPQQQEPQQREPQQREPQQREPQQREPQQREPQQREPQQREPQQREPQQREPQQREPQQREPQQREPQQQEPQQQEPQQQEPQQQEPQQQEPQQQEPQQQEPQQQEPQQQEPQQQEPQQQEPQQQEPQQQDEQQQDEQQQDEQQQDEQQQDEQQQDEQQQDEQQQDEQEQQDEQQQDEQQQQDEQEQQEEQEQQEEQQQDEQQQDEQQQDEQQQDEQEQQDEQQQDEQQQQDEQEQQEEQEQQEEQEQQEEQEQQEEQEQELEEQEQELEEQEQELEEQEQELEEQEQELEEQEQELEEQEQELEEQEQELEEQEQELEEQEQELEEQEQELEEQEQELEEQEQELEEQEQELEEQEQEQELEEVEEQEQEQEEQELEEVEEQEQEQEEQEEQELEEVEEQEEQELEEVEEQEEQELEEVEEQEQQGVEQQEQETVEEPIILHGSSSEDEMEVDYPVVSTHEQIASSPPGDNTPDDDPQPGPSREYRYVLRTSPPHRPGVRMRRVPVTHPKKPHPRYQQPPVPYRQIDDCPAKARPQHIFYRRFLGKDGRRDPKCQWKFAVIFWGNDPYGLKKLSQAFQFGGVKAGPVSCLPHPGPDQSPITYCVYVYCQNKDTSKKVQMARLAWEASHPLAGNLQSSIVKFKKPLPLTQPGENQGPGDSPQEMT
# Vif TR-FRET = inhibitors of Vif binding to APOBEC3G peptide, primary screen, biochemical, TR-FRET, GST-Vif 1-94, biotin-A3G peptide, dose response retest (AID 1117319); inhibition, %, or IC50 in µM where a hit was titrated; 260,000 tested, 0.57% active; TR-FRET GST-Vif / biotin-A3G peptide binding; higher % means a stronger effect; test concentration not given here; strong numbers were not always called active;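 active means above the screen mean plus three standard deviations and confirmed in dose response; inconclusive means results disagree or hit not tested in dose response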;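 further: Vif residues 1-94 fused to GST binding biotinylated APOBEC3G peptide 110-148; 0% = full assay without inhibitor and 100% = GST in place of GST-Vif; retest series ran down from 100 µM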
# A1 inh = inhibitors of the anti-apoptotic protein A1, read as caspase activation | MEF A1-2A-BIM cells, Caspase-Glo 3/7 luminescence, 3 h; percent of clofoctol response, vehicle zero | caspase activation, % (test concentration not listed) | 330,000 tested, 0.066% active | AID 2462;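 active means over half of replicate activation scores above 10%, or exactly half above 10 with the replicate mean above 10; inconclusive means replicate mean below 10 yet half the replicates above 10; inactive means over half of replicates below 10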;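 further: wells of about 30 µL received 50 nL stock; many hits fall short of the cut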
# * hit, by the source's call; ? = inconclusive; . = not tested or not shown; & = joins results of further samples.
SMILES,Calb FLC,Beta cell apopt,AF4-AF9 inh,RanGTP-Impb inh,T cruzi repl,LANA-H2A inh,Vif TR-FRET,A1 inh
CC12CCC(=O)N1C(C(=O)NNC(=O)COc1ccccc1Cl)CS2 (stereo not given),.,-1,5.1,.,.,-0.9,-3%,0.5
O=C(NC(=S)N1CCCCCC1)C1CC1,6,-7,-3.5,0.0,-11,-0.2,-1%,0.4
CCN(c1ccccc1)S(=O)(=O)c1ccc2c(c1)N(C(C)=O)CCO2,-13,-8,0.2,?,4,1.7,.,0.6
CCc1ccc2c(CN(C)Cc3ccc(OC(F)F)c(OC)c3)cc(=O)oc2c1,7,7,-1.1,-2.9,17,-2.3,.,-0.8
O=C(NCC1CCN(c2ccc(S(=O)(=O)N3CCOCC3)cc2)CC1)Nc1ccccc1F,-4,-7,1.2,-1.0,-9,2.6,.,0.5
COc1ccc(NC(=O)Nc2nc(C)cc(C)n2)c(OC)c1,-10,-17,0.6,1.6,-19,1.9,1%,0.1
CCn1c(C)c(C)c2cc(C(=O)NCCN3CCCCCC3)ccc21,5,-3,21,1.0,19,-5.3,.,-0.2
CCCc1nc2ccccc2c(=O)n1/N=C/c1c(C)[nH]n(-c2ccc(C)cc2)c1=O,-2,20,.,2.7,-30,7.1,28%,-5.1
O=C(CSc1nnc(-c2cccnc2)n1Cc1ccco1)Nc1nc(-c2ccc(F)cc2)cs1,-6,0,.,0.1,-12,-4.8,-6%&-7%,-0.3
CCN1C(=O)N[C@@H](c2cccs2)C(C(C)=O)=C1C,-2,0,.,7.4,-5,-0.9,?,0.5
C[C@H](CO)N1C[C@H](C)[C@@H](CN(C)Cc2ccc(C(=O)O)cc2)Oc2c(NC(=O)c3ccncc3)cccc2C1=O,.,2,14,.,.,-2.1,.,0.2
CCc1ccc(/C=C/C(=O)C2C(=O)c3ccccc3C2=O)cc1,-5,10,.,-1.4,-8,-2.0,7%,-4.5
CS(=O)(=O)N(CC(=O)NCC1CCCO1)c1cccc([N+](=O)[O-])c1 (stereo not given),9,-7,-0.9,-3.2,-7,5.7,9%,-0.1
COc1ccc(CCNC(=O)C2CCCN(c3nc(C)cc(C)n3)C2)cc1 (stereo not given),-2,4,-1.5,-2.3,2,-13,10%,0.4
O=C(COn1nnc2ccccc21)N1CCN(Cc2ccccc2)CC1,0,-2,-2.5,1.1,-5,-1.1,4%,-2.3
Cn1c(-c2cc3ccccc3oc2=O)nc2ccccc21,-1,-5,2.6,-1.9,-15,1.2,.,-1.6
O=[N+]([O-])c1cc(C(F)(F)F)cc([N+](=O)[O-])c1NCCN1CCNCC1,-56,-1,3.4,4.7,21,3.4,-6%,0.5
COc1cc(C(=O)NC2Cc3ccccc3C2)ccc1OC1CCN(C(C)=O)CC1,1,-5,-0.5,0.2,1,3.9,.,0.3
O=C(CSc1ccccc1)Nc1ccc(C(=O)Nc2ccc(O)cc2)cc1,-1,.,0.8,1.0,-33,.,2%,.
COc1ccc2[nH]cc(CCNC(=S)NCCc3ccccc3)c2c1,-12,3,16,0.0,-15,-2.6,-13%,0.4
O=C(NC1CCOCC1)C1CCC(=O)N(Cc2ccc(Cl)cc2)C1 (stereo not given),-13,-4,-5.4,2.3,-9,-1.5,.,-0.2
COc1ccc(NC(=S)N(CCc2c(C)[nH]c3ccccc23)Cc2cccnc2)cc1,-2,-3,9.9,-0.7,37,1.7,1%,0.9
Cc1ccc(-n2ncc3c2CC(C)(C)CC3NC(=O)CCc2ccncc2)cc1 (stereo not given),0,1,-0.1,?,3,1.9,.,0.9
Clc1cc2c(c(Cn3cnc4ccccc43)c1)OCOC2,-2,10,.,0.4,-3,-0.7,?,-0.3
Cc1ccc(NC(=O)COc2cccc(/C=C3\SC(=S)N(CCC(=O)O)C3=O)c2)cc1Cl,-5,-7,-6.1,0.0,15,-4.9,-2%,-0.9
COc1ccccc1/C=C/C(=O)OCC(=O)NCCC1=CCCCC1,15,1,-6.0,2.8,-3,0.7,-3%,0.5
CC1(C)C(=O)N(CCN2CCC(C(=O)c3ccc(F)cc3)CC2)c2ccccc21,.,-4,-1.0,.,.,2.5,.,-0.7
Cc1cc(C)cc(-n2c(SC(C)C(=O)NCc3ccc4c(c3)OCO4)nc3ccccc3c2=O)c1 (stereo not given),-8,8,-0.4,1.1,20,-1.0,.,0.7
O=C(COC(=O)C1CCC1)NCc1ccc(F)cc1,-3,-1,-0.8,.,-9,-0.2,-10%,0.1
COc1ccc(-c2cc(C(=O)Nc3nc4ccccc4s3)c3ccccc3n2)cc1OC,?,9,-1.5,-0.3,-18,1.6,-6%,-0.6
CCN(C(=O)c1cc2cc3ccc(C)cc3nc2o1)c1ccc(OC)cc1,-3,-10,.,-1.8,-4,6.3,10%,-1.4
O=C(CSCc1ccc(F)cc1)Nc1ccc(F)cc1,?,-8,1.1,-4.1,-26,0.0,6%,0.6
O=C(CCc1nnc(CCCc2ccccc2)o1)NCC(F)(F)F,6,-7,-2.5,4.5,-4,0.7,0%,-0.8
CCN1C(=O)c2cccc3c(S(=O)(=O)NC(Cc4c[nH]c5ccccc45)C(=O)O)ccc1c23 (stereo not given),2,-6,.,1.4,-1,4.6,5%&4%,0.2
O=C(O)C(c1ccccc1)N1C(=O)c2cccc3cccc(c23)C1=O (stereo not given),-10,-3,-1.1,4.3,-6,-7.1,.,-0.5
Cn1c(=O)[nH]c(=O)c2c1nc(SCCO)n2Cc1ccccc1Cl,33,-3,-10,-0.7,-4,4.1,-5%,1.7
COc1cccc(C(C)NC(=S)NCc2ccc(F)cc2)c1 (stereo not given),-5,-3,1.6,5.0,-13,4.6,-2%,0.5
COc1cccc(/C=C2\SC(=O)NC2=O)c1OCc1ccc(C(=O)O)cc1,-3,-4,-1.5,-2.7,12,-4.6,-3%,1.8
O=C1CN(C(=O)COC(=O)CCNS(=O)(=O)c2ccc(Cl)cc2)c2ccccc2N1,3,-7,5.1,0.7,1,3.2,1%,0.2
O=C(NCCCn1ccnc1)c1ccc(-c2cccc(C(F)(F)F)c2)o1,.,1,1.8,.,.,-6.8,.,0.2
CCOC(=O)COn1c(=O)c(-c2ccc(OC)c(OC)c2)[n+]([O-])c2ccccc21,1,28,.,-2.9,3,3.7,28%,0.2
COCCCNCCCOc1ccc(C(C)(C)c2ccccc2)cc1,1,-3,.,3.9,58*,0.7,2%,-0.8
Cc1cc(NC2C3CC4CC(C3)CC2C4)n2ncnc2n1 (stereo not given),-35,.,6.3,-2.7,4,-12,-1%,-0.3
CC(=O)n1c(C=Nc2ccc(Cl)cc2)c(O)c2ccccc21,-1,6,1.5,7.6,9,7.2,1%,-0.2
CCS(=O)(=O)c1ccc2oc(Nc3ccc(C(C)(C)C)cc3)nc2c1,19,2,-0.9,-1.1,30,-3.6,-2%,-0.1
COc1ccc(SCCN2CCN(CC(C)C)CCC2=O)cc1,-9,-7,2.5,2.4,-5,2.2,.,-0.1
Cc1ccccc1OCC(=O)OCC(=O)NCc1ccco1,4,-2,-2.5,-1.7,-11,-2.8,-1%,1.8
O=C1Nc2ccc(Br)cc2C1(O)c1ccccc1 (stereo not given),2,-3,-3.7,3.2,2,7.1,-4%,-0.4
CCOc1ccc(NC(=O)CN(C)C(=O)c2cc3c(s2)CCCCC3)cc1OCC,-2,3,-0.3,8.2,-9,-11,-9%,0.0
O=C(c1ccc([N+](=O)[O-])o1)N(Cc1nnc(-c2ccccc2Cl)o1)C1CC1,.,2,5.6,.,.,2.0,12%,0.8
CCC(C)(C)C1CCC2(CC1)NC(=O)N(CC(=O)N(C)CC(=O)Nc1ccccc1C(F)(F)F)C2=O (stereo not given),2,10,-3.0,1.9,-4,3.0,.,-0.8
COc1ccc(CCNC(=O)C2CCCN(Cc3nc(-c4cccc(Cl)c4)oc3C)C2)cc1OC (stereo not given),-1,3,.,-1.8,62*,2.8,17%&-4%,-0.2
Cc1cccc(CNS(=O)(=O)c2csc(C(N)=O)c2)c1,-5,0,-1.1,-1.1,-16,0.5,.,0.3
O=C(N/N=C/C1CCCCC1)c1ccccc1-n1cccc1,-1,-4,3.9,-1.0,0,.,-2%,0.0
NC(=O)c1cc(N)ccc1N1CCCC1,-1,0,.,-1.0,-12,-5.1,1.1µM*,-1.2
Cc1ccccc1CN1C[C@@H]2C[C@@H](c3ccc4nsnc4c3)N3CCC[C@@]23C1=O,-18,69,?,0.9,20,-0.3,.,0.5
COC(=O)c1sc2ccccc2c1N,3,.,2.8,1.8,-2,.,-5%,.
Cc1cc(=O)nc2c3ccccc3n(C(C)C(=O)NCCN3CCOCC3)n12 (stereo not given),-5,-3,-7.0,6.1,11,6.0,.,0.8
CCCc1cc(=O)[nH]c(SCC(=O)N2CCN(S(=O)(=O)c3ccc(C)cc3)C2)n1,-1,0,-0.4,1.4,2,0.1,17%,0.2
COC(=O)CSc1snnc1-c1ccc(Cl)cc1Cl,4,0,.,6.0,-14,11,1%,0.3

# Next part.
SMILES,Calb FLC,Beta cell apopt,AF4-AF9 inh,RanGTP-Impb inh,T cruzi repl,LANA-H2A inh,Vif TR-FRET,A1 inh
COc1ccccc1NC(=O)c1nn(-c2ccccc2)ccc1=O,-6,2,.,?,4,-0.4,1%,-1.2
Cc1cc(CNC(=O)COc2ccc(F)cc2Cl)cc(C)c1O,-2,-4,0.5,1.8,-2,1.2,11%,1.1
COc1ccc(S(=O)(=O)N2CC(=O)Nc3ccccc32)cc1F,4,10,3.2,3.1,-14,-4.9,.,-0.5
CCCCNC(=O)CN1CCC2(O)CCCCC2C1c1ccccc1OC (stereo not given),3,4,.,0.9,9,0.9,?,0.1
COC(=O)c1ccc(CSc2ncnc3ccccc23)o1,7,1,1.0,-4.0,-13,1.7,0%,0.5
N#Cc1ccsc1NC(=O)CCN1C(=O)C2CCCCC2C1=O (stereo not given),.,1,0.6,.,.,-8.3,-4%,1.6
Cc1noc(C)c1C(=O)Nc1nc2ccc(F)cc2s1,.,15,0.2,.,.,0.1,-3%,-15
CCCCOc1ccc(Cc2c(COCC)[nH]c(=S)[nH]c2=O)cc1,39,1,-2.7,0.7,8,-11,26%,0.6
CSc1ccc(C2C(C#N)=C(N)N(c3ccccc3)C3=C2C(=O)CCC3)cc1 (stereo not given),7,-2,.,2.6,-8,-4.0,?,-0.8
Cn1c(=O)[nH]c(=O)c2c1nc(N1CCNCC1)n2Cc1cccc2ccccc12,0,-3,.,5.0,4,18*,10%,0.8
CCN1CCN(C(=O)Cn2nc(C)n3c(cc4c(OC)cccc43)c2=O)CC1,-8,-3,-1.9,2.2,-14,2.9,.,-0.2
COC(=O)c1cc(NC(=O)C2(S(=O)(=O)c3ccc(C)cc3)CC2)cc(C(=O)OC)c1,52,0,.,6.0,4,-3.0,-5%,-0.4
CCN(CC)C(=O)C1CCC(CNS(=O)(=O)c2cccc3nsnc23)CC1 (stereo not given),6,.,-2.3,4.8,0,.,.,.
CCOC(=O)c1ccc2nc(NC(NC(C)=O)(C(=O)OC)C(F)(F)F)sc2c1 (stereo not given),7,-1,.,-3.1,-23,-6.9,7%&9%,0.3

# Screens: PubChem BioAssay, several laboratories
